FGF22 binding = shifts melting point of recombinant human FGF22. recombinant FGF22 thermal shift, SYPRO orange fluorescence; percent of sucrose octasulfate shift, DMSO zero. calls only at 9.99 µM. hit rate 1.5% among 340,000;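 active = melting point raised past a set limit in the mean and every replicate; inconclusive = no clear call; three in four hits are not shown here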
Target sequence (Q9HCT0 whole entry, looked up): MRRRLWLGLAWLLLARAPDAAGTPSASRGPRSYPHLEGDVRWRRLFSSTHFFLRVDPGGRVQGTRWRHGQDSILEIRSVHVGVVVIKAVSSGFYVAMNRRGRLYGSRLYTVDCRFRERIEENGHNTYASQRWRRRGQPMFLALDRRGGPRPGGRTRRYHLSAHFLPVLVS
ALR inh = blocks human ALR sulfhydryl oxidase activity; P55789; inhibition, % (concentration not given with the values); purified ALR, DTT oxidation, H2O2 HRP-luminol luminescence; AID 485317; hit rate 3.8% among 290,000;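 active = mean and each replicate at 75% or more; inconclusive = only one of the two met; inactive = neither met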;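 also: stock transfer was 7.5 nL into about 7.5 µL; 0% = neutral wells and 100% = wells with inactivated enzyme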
Target sequence (P55789 whole entry, looked up): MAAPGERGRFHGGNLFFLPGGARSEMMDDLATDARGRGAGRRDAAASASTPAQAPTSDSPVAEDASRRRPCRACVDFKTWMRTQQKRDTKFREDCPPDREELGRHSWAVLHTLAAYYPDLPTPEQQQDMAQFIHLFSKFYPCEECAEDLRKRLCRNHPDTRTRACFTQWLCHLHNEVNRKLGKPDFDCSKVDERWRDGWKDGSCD
rRNA inh HTS = inhibitors of bacterial rRNA selective over humanized ribosomes; GFP signal change (wild-type ribosome), % (no concentration beside the values); hit rate 1.6% among 350,000; E. coli WT GFP vs humanized-ribosome RFP mutants, fluorescence, 24 h; hits give low values; DMSO median 0, no signal -100;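 active = significant combined selectivity score with lowered wild-type GFP, culture density cut under 30%, mutant RFP and density less affected; inactive = any of these conditions unmet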; also: one replicate is shown; some compounds called inactive have numbers as strong as hits
MLL AF4-AF9 inh = blocks AF4 peptide binding to human AF9; P42568; AlphaScreen, biotin-AF4 peptide binding to FLAG-AF9; inhibition, % at 10 µM; hit rate 0.47% among 350,000; AID 651704;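 active = every replicate reaching a set inhibition limit, whatever the replicate mean, cut at about 25% in these data; inconclusive = mean inhibition reaches that limit but some replicates miss it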;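 also: 0% = plate neutral control median and 100% = total signal loss; the record names both 10 and 1 µM as test concentration; the first replicate is given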
Target sequence (P42568 whole entry, looked up): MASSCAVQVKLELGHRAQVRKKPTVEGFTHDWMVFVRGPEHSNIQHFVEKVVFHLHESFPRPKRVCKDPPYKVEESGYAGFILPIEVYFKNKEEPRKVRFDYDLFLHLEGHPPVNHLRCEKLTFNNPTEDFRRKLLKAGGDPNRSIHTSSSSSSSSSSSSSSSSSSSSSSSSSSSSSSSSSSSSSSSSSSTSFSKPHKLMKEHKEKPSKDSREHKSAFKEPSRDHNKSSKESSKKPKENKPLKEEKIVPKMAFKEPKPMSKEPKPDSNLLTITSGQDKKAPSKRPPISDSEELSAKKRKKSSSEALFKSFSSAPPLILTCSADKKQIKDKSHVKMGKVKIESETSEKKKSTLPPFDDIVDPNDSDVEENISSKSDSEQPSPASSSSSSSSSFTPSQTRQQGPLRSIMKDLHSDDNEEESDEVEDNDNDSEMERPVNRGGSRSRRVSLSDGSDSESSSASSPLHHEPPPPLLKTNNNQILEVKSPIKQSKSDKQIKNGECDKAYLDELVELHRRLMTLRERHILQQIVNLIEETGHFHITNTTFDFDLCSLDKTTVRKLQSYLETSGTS
HNF4A DNA FP = change in binding of human HNF4 alpha to DNA; P41235; HNF4a-FITC DNA binding, fluorescence polarization, 1 h; activity change, % at 10 µM; hit rate 0.3% among 360,000; AID 1224865; in the data active = activity change above about 30%, passing the limit was not always enough;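 also: controls were the assay level and a saturating level of protein; the project sought stronger binding though the title names inhibitors; some compounds called inactive have numbers as strong as hits; positive values seem to mean higher polarization but the record does not say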
Vif A3G = inhibitors of Vif binding to APOBEC3G peptide, primary screen, biochemical, TR-FRET, GST-Vif 1-94, biotin-A3G peptide, dose response retest (AID 1117319); hit rate 0.57% among 260,000; inhibition, %; hits with a dose series show IC50 in µM; TR-FRET GST-Vif / biotin-A3G peptide binding; higher % means a stronger effect; test concentration not given here; strong numbers were not always called active;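 active = above the screen mean plus three standard deviations and confirmed in dose response; inconclusive = results disagree or hit not tested in dose response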;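 also: Vif residues 1-94 fused to GST binding biotinylated APOBEC3G peptide 110-148; 0% = full assay without inhibitor and 100% = GST in place of GST-Vif; retest series ran down from 100 µM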
Ecoli growth = inhibitors of Escherichia coli growth; OD600, 23 h; hits give low values; OD600 absorbance (test concentration not listed); hit rate 0.21% among 330,000;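 active = OD600 absorbance below the run mean of sample wells minus 3.6 SD, in any replicate, cut at about 0.56 in these data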;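 also: stock transfer was 300 nL into about 60 µL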
rRNA inh HTS OD600 = also measured in rRNA inh HTS; calls as there; OD600 change, %; measured here: OD600 growth;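 optical density of the mix in the first replicate; 0 = DMSO median and -100 = no signal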
rRNA inh HTS RFP = also measured in rRNA inh HTS; calls as there; RFP signal change, %; measured here: RFP humanized mutant strains;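 first replicate; 0 = DMSO median and -100 = no signal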
Starred values were filed as active, the others as inactive; i = inactive; ? = inconclusive; . = not tested or not shown; & = joins results of further samples. This is a subset. The share of hits here may be higher or lower than overall.

SMILES	FGF22 binding	ALR inh	rRNA inh HTS	rRNA inh HTS OD600	rRNA inh HTS RFP	MLL AF4-AF9 inh	HNF4A DNA FP	Vif A3G	Ecoli growth
O=C(NCCN1CCN(c2ccccc2)CC1)c1ccccc1F	i	98.7*	4.5	6.2	-2.4	-0.9	0.2	-2.4%	0.668
COc1ccc(CNC(=O)c2sc(=S)n(-c3ccc(OC)cc3)c2N)cc1	.	-6.3	.	.	.	.	-0.8	-1.2%	0.675
CCC(C)CCN1CCN=C1Nc1ccccc1 (centres undefined)	i	34.6	2.5	-18.3	-0.4	.	0.1	.	0.639
COc1ccc(C(NC(=O)C2CCN(CCOc3ccccc3)CC2)c2ccccn2)cc1 (centres undefined)	i	.	6.4	7.5	0.5	-0.9	0.5	.	.
N/C(=N\OC(=O)CSc1ccccc1)c1ccccn1	i	2.1	-0.1	-8.8	-0.8	-1.1	-0.2	6.9%	0.692
O=C(O)c1ccc(S(=O)(=O)N2CCCCCC2)cc1	.	31.9	.	.	.	.	6.5	1.6%	0.733
CN(C)C(=O)C[C@H]1C[C@@H]2c3cc(NC(=O)c4cccnc4)ccc3O[C@@H]2[C@@H](CO)O1	i	.	4.1	11.0	-0.3	-1.5	.	.	.
O=C1c2nc3cc(-c4ccco4)[nH]n3c(=O)c2CN1C1CCCCC1	i	13.3	.	.	.	1.9	-6.5	10.5%	0.616
O=C(O)CCc1nn2c3ccccc3n(CCO)c2nc1=O	i	-1.9	5.8	5.6	-0.4	-1.9	1.6	-1.3%	0.718
Cc1c(C)c2ccc(OC(C)C(=O)N3CC[C@@]4(O)CCCC[C@H]4C3)cc2oc1=O (some centres undefined)	i	.	4.6	5.5	-0.4	1.0	2.4	.	0.648
Cc1ccccc1OCC(O)CNC1CCC(NCC(O)COc2ccccc2C)CC1 (centres undefined)	i	-6.2	-57.2	-77.6	-14.0	20.6	3.4	-7.5%	.
C[C@H]1CN([C@@H](C)CO)C(=O)c2cc(NS(=O)(=O)c3ccccc3)ccc2O[C@H]1CN(C)Cc1ccc(C(=O)Nc2ccccc2N)cc1	i	.	-1.3	-6.3	1.9	0.5	.	.	.
COCCOC(=O)N/C=C\c1nc2ccccc2c(=O)[nH]1	.	-5.1	.	.	.	.	0.3	13.8%	0.71
O=C(Nc1ccccc1)c1cc([N+](=O)[O-])ccc1Cl	i	-3.8	.	.	.	3.3	-1.4	-1.6%	0.688
O=C(C[C@H]1C[C@H](C(=O)N2CCOCC2)[C@@]2(CCC3CCCC3)c3[nH]c4ccc(Cl)cc4c3CCN2C1=O)NCCN1CCOCC1	i	.	-0.5	14.7	1.4	2.0	-1.8	.	0.72
CCCC(=O)c1cc(F)c(N2CCN(CCC#N)CC2)cc1C	.	-9.4	.	.	.	.	0.3	3.3%	0.686
CN1C(=O)c2oc3ccccc3c(=O)c2C1c1cccnc1 (centres undefined)	i	-15.7	-1.6	0.8	-2.4	-5.6	1.5	.	0.662
Fc1ccccc1NC(=S)NCc1ccc(Cl)cc1	i	6.2	-7.3	-8.1	-3.2	-0.1	-1.1	.	0.621
COC(=O)c1ccc2c(c1)C(=O)N(C1CCCCC1)C2=O	.	-2.1	.	.	.	.	0.4	29.9%	0.751
CC(=O)N1CC2(C1)[C@H](c1ccc(-c3cccc(F)c3)cc1)[C@@H](CO)N2CC1CCCC1	i	.	-35.6	-71.2	3.2	-1.4	.	.	.
Cc1ccc(-n2ncc(Cl)c2C(=O)NC2CC2)cc1	i	8.4	-23.5	-22.5	-4.3	0.8	2.3	.	0.614
CC/C(=N\Nc1ccc([N+](=O)[O-])cc1[N+](=O)[O-])c1ccc(O)cc1	i	11.8	-1.0	-1.5	-6.8	1.4	3.4	-6.9%	.
Fc1cccc(Cc2c(-c3cccc(Cl)c3)nc3ccc(Cl)cn23)c1	i	.	-23.9	-43.3	15.7	0.0	1.3	.	.
COCC(C)n1c(SCC(=O)N2CC(=O)Nc3ccccc32)nc2ccccc2c1=O (centres undefined)	i	-2.4	-3.8	-3.2	1.3	-0.2	1.4	.	0.712
O=C(Nc1ccc2c(c1)OCO2)C1CCN(S(=O)(=O)c2cccs2)CC1	.	-12.2	.	.	.	.	3.4	19.3%	0.669
CNC[C@H]1Oc2ncc(-c3ccc(OC)cc3)cc2C(=O)N([C@@H](C)CO)C[C@H]1C	i	.	1.2	4.5	-3.6	-6.0	.	.	.
Cn1cnc(S(=O)(=O)N[C@@H]2C=C[C@H](CC(=O)NCC3CC3)O[C@@H]2CO)c1	i	.	-1.9	1.6	-2.3	-1.1	.	.	.
Cc1ccc(S(=O)(=O)N2C[C@H]3[C@H]4C(=O)N(Cc5ccccc5)C(=O)[C@H]4CC(=O)[C@H]3[C@@H]2c2ccccc2Cl)cc1	i	.	8.5	5.4	2.4	1.8	0.9	.	.
COc1c2ccoc2c(OC)c2oc(=O)ccc12	i	-7.4	-7.0	-9.2	2.6	-3.7	-1.6	.	0.726
CCN(CC)S(=O)(=O)c1ccc2[nH]c(=O)cc(C(=O)NCC3CCCO3)c2c1 (centres undefined)	i	-6.4	8.8	6.8	-0.5	1.7	-2.0	0.9%	0.617
COc1cc(C(C)=O)ccc1OCC(O)Cn1nc(C)c(Br)c1C (centres undefined)	i	7.5	-7.3	-13.0	-0.4	-4.2	2.8	.	0.693
Cc1ccc(S(=O)(=O)N2CCCCC2)cc1NC(=O)[C@@H]1CCCN1C(=O)c1cccs1	i	-6.2	-0.7	6.7	-0.2	-6.1	-5.3	1.8%	0.68
COc1cc2c(cc1OC)C1(Nc3c-2c(Cc2ccccc2)nn3-c2ccccc2)C(=O)Nc2ccccc21 (centres undefined)	.	0.7	.	.	.	.	13.6	8.8%&3.8%	0.718
O=S(=O)(c1ccc2ccccc2c1)N1CCN(C(=S)Nc2ccccc2F)CC1	i	1.9	-8.7	-7.4	8.2	3.3	0.1	.	0.653
BrC(=C\c1ccccc1)/C=N/Nc1nc2ccccc2[nH]1	.	62.8	.	.	.	.	-4.0	7.8%	.
C[C@H]1CN([C@@H](C)CO)C(=O)c2cccc(NC(=O)c3ccncc3)c2O[C@@H]1CN(C)C(=O)Nc1ccc(C(F)(F)F)cc1	i	.	-1.3	0.5	-4.2	1.4	.	.	.
CN1CCN(C(=O)C[C@@H]2C=C[C@@H](NS(=O)(=O)c3cccc(F)c3)[C@@H](CO)O2)CC1	i	.	1.9	1.6	-2.5	-3.8	.	.	.
C[C@H]1NS(=O)(=O)c2ccc(Br)cc2O[C@H]1c1ccccc1	i	.	-42.8	-50.5	-4.4	-0.1	0.0	-4.3%	0.704
Cc1nc2sc(C#N)c(N)c2c2c1CCCC2	.	-0.7	.	.	.	.	-0.2	5.5%	0.658
CCOC(=O)c1cc(NC(=O)c2cnccn2)cc(C(=O)OCC)c1	.	3.3	.	.	.	.	2.3	1.9%	0.702
CN(C(=O)COc1ccccc1C(=O)NCCc1ccccc1)c1ccccc1	.	-6.4	.	.	.	.	1.8	9.5%	0.653
CCN(CC)S(=O)(=O)c1ccc(N2CCOCC2)c(NC(=O)CC(C)(C)C)c1	i	-6.9	0.1	4.4	1.8	1.1	-2.1	32.2%	0.734
C[C@@H]1CN([C@H](C)CO)C(=O)c2cc(-c3cccc(F)c3)cnc2O[C@@H]1CN(C)S(C)(=O)=O	i	.	-1.1	5.7	-4.4	-3.1	.	.	.
COc1ccc(C2OC(CCc3ccccc3)Cc3[nH]c(=S)[nH]c(=O)c32)cc1 (centres undefined)	i	.	1.1	-5.3	-0.8	-1.3	0.2	.	.
Clc1ccc(/C=N\Nc2ccccc2)cc1	i	98.6*	.	.	.	5.0	3.1	27.0%	.
COc1ccc(NC(=O)N(C)C[C@@H]2OCc3cnnn3CCCC(=O)N([C@@H](C)CO)C[C@@H]2C)c(OC)c1	i	.	1.3	-1.9	0.6	-1.1	.	.	.
CCCCn1c(=N)n(CC(=O)c2ccc(OC)cc2)c2ccccc21	i	-21.0	-43.4*	-30.9*	-9.2*	0.4	.	?	0.628
CCc1noc(N)c1C(=O)Nc1ccc(F)c(Cl)c1	.	-8.4	.	.	.	.	1.6	74.6µM*	0.684
Cc1cc(O)cc2c1C(=O)/C(=C/c1ccco1)O2	i	.	3.2	-36.0	-0.7	2.7	-11.6	13.0%	0.579
O=C(Nc1ccc(Cl)cn1)c1cccc(F)c1	.	-2.1	.	.	.	.	-1.8	-2.6%	0.719
C/C(=N/NC(=O)CNC(=O)c1cccs1)c1ccc(Cl)cc1	i	-1.4	-1.2	-0.5	-1.3	1.8	0.4	.	.
C[C@@H]1CN([C@@H](C)CO)C(=O)c2cc(NS(=O)(=O)c3cn(C)cn3)ccc2O[C@H]1CN(C)Cc1ccc(C(=O)O)cc1	i	.	5.3	16.9	-2.5	-6.0	.	.	.
O=c1[nH]ncc(NCCc2ccccc2)c1Cl	.	.	14.6	14.1	2.0	-1.5	-4.6	14.9%	0.664
O=C(NCc1ccccn1)C(=O)NCC1OCCN1S(=O)(=O)c1ccc([N+](=O)[O-])cc1 (centres undefined)	i	-17.1	13.4	20.4	0.9	-7.1	4.1	.	0.682
O=C(CCNC(=O)c1ccccc1Cl)Nc1ccc2c(c1)OCCO2	i	.	.	.	.	-5.3	1.7	.	.
NC(=O)c1ccccc1N(Cc1ccccc1)S(=O)(=O)c1ccccc1	.	-6.3	-4.1	-16.6	-0.7	-0.8	-5.7	-0.3%	0.642
COc1ccc(S(=O)(=O)N2CCC[C@H]2C(=O)NC2=NCCS2)cc1	.	-24.0	7.6	10.7	4.7	.	-2.0	5.7%	0.705
CC1Oc2ccccc2N(CC(=O)c2ccc(F)cc2)C1=O (centres undefined)	i	5.4	-9.8	-2.8	-1.8	-1.5	-2.2	-3.3%	0.672
Cc1ccc(C)c2[nH]c(=O)c(C(c3nnnn3CCc3ccccc3)N3CCOCC3)cc12 (centres undefined)	.	12.7	.	.	.	.	1.9	4.4%	0.717
COc1ccc(NC(=O)c2ccccc2NC(=O)c2ccccc2C(=O)O)c(OC)c1	i	-5.9	12.6	13.6	3.5	-12.8	-0.1	-3.1%	0.658

(listing goes on)
SMILES	FGF22 binding	ALR inh	rRNA inh HTS	rRNA inh HTS OD600	rRNA inh HTS RFP	MLL AF4-AF9 inh	HNF4A DNA FP	Vif A3G	Ecoli growth
Cc1ccc(S(=O)(=O)N2CCC(C(=O)OCC(=O)N(C)c3ccccc3)CC2)cc1C	i	-1.7	1.9	0.4	0.5	-1.4	-2.5	-5.7%	0.695
Cc1cc(Br)c(NC(=O)COC(=O)C2CCCCC2)c(Br)c1	i	-10.6	4.7	-2.7	-1.9	-0.2	5.7	.	0.706
CCCP(=O)(CC(=O)N(CC)CC)c1ccccc1 (centres undefined)	.	-2.8	.	.	.	.	2.1	-6.2%	0.724
CC(C)c1ccc(C(C(C(=O)c2ccccc2)N2CCOCC2)N2CCOCC2)cc1 (centres undefined)	.	.	-7.5	-13.4	-1.6	9.9	3.1	-4.3%	0.713

Copied from the list:
Cc1ccc(S(=O)(=O)N2CCC(C(=O)OCC(=O)N(C)c3ccccc3)CC2)cc1C @ ALR inh: -1.7
CCCP(=O)(CC(=O)N(CC)CC)c1ccccc1 (centres undefined) @ Vif A3G: -6.2%
CC(C)c1ccc(C(C(C(=O)c2ccccc2)N2CCOCC2)N2CCOCC2)cc1 (centres undefined) @ rRNA inh HTS: -7.5

Screening results: PubChem, several laboratories
